From PubChem
ALR H2O2 inh = inhibitors of human ALR sulfhydryl oxidase, primary screen, biochemical, H2O2 detection, HRP-luminol luminescence, single point | FAD-linked sulfhydryl oxidase ALR (Homo sapiens), P55789 | purified ALR, DTT oxidation | inhibition, % (test concentration not listed) | 290,000 compounds, 3.8% hits | AID 485317, 2010;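 active = mean and each replicate at 75% or more; inconclusive = only one of the two met; inactive = neither met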;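 also: stock transfer was 7.5 nL into about 7.5 µL; 0% = neutral wells and 100% = wells with inactivated enzyme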
Target sequence (P55789 whole entry, looked up): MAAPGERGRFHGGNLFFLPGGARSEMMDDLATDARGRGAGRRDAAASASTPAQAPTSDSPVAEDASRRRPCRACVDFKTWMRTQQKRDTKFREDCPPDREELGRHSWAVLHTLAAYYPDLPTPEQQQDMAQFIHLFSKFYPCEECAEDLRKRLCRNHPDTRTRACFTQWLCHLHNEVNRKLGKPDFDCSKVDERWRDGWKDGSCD
Calb FLC = C. albicans growth inhibition with fluconazole, primary screen, CaCi-2 strain, Alamar Blue fluorescence; C. albicans CaCi-2 (fluconazole-resistant clinical isolate) + fluconazole, 48 h; AID 1979, 2009; growth inhibition, % (concentration not given with the values); 300,000 compounds, 0.57% hits;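 active = most replicates above 75%; inconclusive = exactly half above 75%; inactive = most below 75%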;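 also: all wells also contain fluconazole at 8 µg/ml as a sub-toxic cotreatment; 0% = median of DMSO wells and 100% = median of geldanamycin control wells; wells of about 8 µL received 7.5 nL stock; the first replicate is given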
RanGTP-Imp inh = inhibitors of RanGTP-importin-beta interaction, primary screen, biochemical, FRET, CFP-Ran, YFP-importin-beta, homogeneous | Ran GTPase (GTP-bound) - importin-beta complex | cell-free CFP-Ran/YFP-importin-beta FRET ratio | inhibition, % (no concentration beside the values) | 300,000 compounds, 1.1% hits;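 active = most replicates above 15%; inconclusive = exactly half above 15%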;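 also: 0% = DMSO wells and 100% = Ran loaded with GDP instead of GTP; wells of about 40 µL received 100 nL stock; the first replicate is given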
Beta2AR agonist = beta2AR agonists driving receptor internalization, primary screen, cell-based, FAP fluorogen, flow cytometry; Beta-2 adrenergic receptor (Homo sapiens), P07550; Am2.2-beta2AR cells; reference of the scale not given here; response, % (test concentration not listed); 340,000 compounds, 0.43% hits; AID 504454, 2011;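 active = response above a set limit, near 3 SD of response in nonfluorescent compounds, cut at about 42% in these data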;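 also: stock transfer was 100 nL into about 11 µL; a reference agonist was the positive control; negative values mostly stem from fluorescent compounds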
Target sequence (P07550 whole entry, looked up): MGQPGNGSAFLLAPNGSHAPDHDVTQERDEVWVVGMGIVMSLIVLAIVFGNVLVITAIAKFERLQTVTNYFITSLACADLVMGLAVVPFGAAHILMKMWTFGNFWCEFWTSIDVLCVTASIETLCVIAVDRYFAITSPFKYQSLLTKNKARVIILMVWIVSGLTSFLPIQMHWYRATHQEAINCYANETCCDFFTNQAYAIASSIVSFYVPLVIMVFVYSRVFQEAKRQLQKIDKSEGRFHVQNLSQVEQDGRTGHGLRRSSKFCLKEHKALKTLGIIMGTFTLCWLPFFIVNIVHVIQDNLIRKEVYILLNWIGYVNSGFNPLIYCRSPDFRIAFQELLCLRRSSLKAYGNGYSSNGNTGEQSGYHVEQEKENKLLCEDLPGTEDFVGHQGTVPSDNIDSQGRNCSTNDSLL
HNF4A DNA FP = change in binding of human HNF4A to DNA, primary screen, biochemical, fluorescence polarization, FITC-DNA; 360,000 compounds, 0.3% hits; AID 1224865, 2016; Hepatocyte nuclear factor 4-alpha (Homo sapiens), P41235; activity change, % at 10 µM; 1 h; in the data active = activity change above about 30%, passing the limit was not always enough;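 also: controls were the assay level and a saturating level of protein; the project sought stronger binding though the title names inhibitors; some compounds called inactive have numbers as strong as hits; positive values seem to mean higher polarization but the record does not say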
Target sequence (P41235 whole entry, looked up): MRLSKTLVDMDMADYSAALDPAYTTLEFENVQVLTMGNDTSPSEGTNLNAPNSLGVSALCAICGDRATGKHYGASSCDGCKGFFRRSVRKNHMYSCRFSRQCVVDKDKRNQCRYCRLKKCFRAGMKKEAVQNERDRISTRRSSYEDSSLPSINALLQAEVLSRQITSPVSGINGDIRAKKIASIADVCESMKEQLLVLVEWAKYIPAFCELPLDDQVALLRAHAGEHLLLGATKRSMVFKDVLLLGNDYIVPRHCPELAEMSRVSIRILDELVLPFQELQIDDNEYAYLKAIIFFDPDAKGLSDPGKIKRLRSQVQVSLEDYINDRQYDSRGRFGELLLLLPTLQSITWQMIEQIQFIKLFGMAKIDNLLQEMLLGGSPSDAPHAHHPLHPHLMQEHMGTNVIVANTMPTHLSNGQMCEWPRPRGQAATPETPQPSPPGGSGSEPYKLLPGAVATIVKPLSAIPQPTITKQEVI
LANA-H2B inh = blockers of LANA interaction with H2A/H2B – biochemical, FP readout, HTS, primary screen; cell-free LANA-H2A/H2B peptide, fluorescence polarization; 320,000 compounds, 0.6% hits; AID 2629, 2010; inhibition, % (concentration not given with the values); in the data active = inhibition mostly above about 10%, no sharp cut-off; inactive = mostly below about 6.7%;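 also: stock transfer was 7.5 nL into about 10 µL; 0% = median of vehicle wells and 100% = median of positive control wells; one replicate is shown; the record names a cut of 25% in any replicate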
Vif A3G = inhibitors of Vif binding to APOBEC3G peptide, primary screen, biochemical, TR-FRET, GST-Vif 1-94, biotin-A3G peptide, dose response retest (AID 1117319); TR-FRET GST-Vif / biotin-A3G peptide binding; higher % means a stronger effect; test concentration not given here; strong numbers were not always called active; one-dose inhibition, %; IC50 in µM for titrated hits; Virion infectivity factor (Human immunodeficiency virus type 1 group M subtype B (isolate …; 260,000 compounds, 0.57% hits;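 active = above the screen mean plus three standard deviations and confirmed in dose response; inconclusive = results disagree or hit not tested in dose response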;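 also: Vif residues 1-94 fused to GST binding biotinylated APOBEC3G peptide 110-148; 0% = full assay without inhibitor and 100% = GST in place of GST-Vif; retest series ran down from 100 µM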
Starred values were filed as active, the others as inactive; i = inactive; u = inconclusive; x = not tested or not shown; & = joins results of further samples. This is a random part of the collection; about 6.3% have a hit in one of these screens.

Below each compound – Calb FLC	ALR H2O2 inh	RanGTP-Imp inh	Vif A3G	LANA-H2B inh	Beta2AR agonist	HNF4A DNA FP
- COc1ccc(OC)c(S(=O)(=O)N2c3ccccc3CC2C)c1 (stereo not given)
  18	x	-6.4	-1%	-0.2	5	3.9
- O=C(NC1CCCC1)C(c1ccc(N2CCOCC2)cc1)N(Cc1ccco1)C(=O)c1ccco1 (stereo not given)
  -6	24	0.7	17%	11	-2	-0.7
- O=C(NCc1ccccc1F)c1cccc(S(=O)(=O)N2CCCCC2)c1
  x	-14	x	0%	1.3	-4	-2.1
- O=C(Nc1ccc(S(=O)(=O)NC2CCCCC2)cc1)c1ccco1
  -8	10	-4.1	-5%	10	-20	0.6
- O=C(CSc1cccc(C(F)(F)F)c1)NC(=O)c1ccccc1
  -4	-1	-0.2	x	0.6	8	-0.3
- COc1ccc(Cl)cc1NC(=O)C(C)N1CCN(C/C=C/c2ccccc2)CC1 (stereo not given)
  3	-3	1.9	-4%&-1%	-0.5	-6	2.6
- O=C(CSc1nnc(Cc2cccs2)n1-c1ccc(Cl)cc1)NCc1ccc2c(c1)OCO2
  6	-13	-1.0	-2%	-4.3	3	0.2
- CC(C)C1CCC(C(=O)N[C@H](Cc2ccccc2)C(=O)O)CC1 (stereo not given in full)
  x	-3	1.1	-2%	-12	x	x
- Cc1nnc(C)n1/N=C/c1cccc(Oc2ccccc2)c1
  6	1	-1.1	30%	-1.3	-14	-3.2
- NC(=O)NC(=O)c1nccnc1C(=O)O
  -4	-4	4.3	0%	-1.6	-57	0.0
- CN(c1ccccc1)S(=O)(=O)c1cccc(NC(=O)CN2CCCc3ccccc32)c1
  -7	4	0.8	x	2.9	-1	10
- CC(=O)c1ccc(S(=O)(=O)N(C)CC(=O)NCC2CCCCC2)cc1
  -3	-6	-2.4	x	0.8	-7	1.1
- COc1ccc(C(=O)C2CCCN(C(=O)/C=C/c3cnc[nH]3)C2)c(C)c1 (stereo not given)
  0	6	4.9	x	-4.8	-1	1.8
- CCn1nnnc1SCC(=O)c1ccc2c(c1)OCCO2
  -6	35	2.2	-7%	0.5	-2	-0.6
- CCOC(=O)c1sc(NC(=O)CSCc2c(C)noc2C)nc1C
  x	-6	x	7%	0.0	14	4.8
- C[C@@]12C(=O)N(c3cccc(Cl)c3)C(=O)N1[C@@H]1c3ccccc3OC[C@@H]1[C@H]2c1ccccc1
  x	-4	x	x	1.5	8	0.2
- Cc1ccc(NS(=O)(=O)c2ccccc2[N+](=O)[O-])cc1S(=O)(=O)N1CCCCC1
  x	-1	x	-3%	-0.7	-1	1.7
- COc1cc(C)ccc1OCCON1C(=O)CCC1=O
  2	-17	3.7	4%	6.2	1	5.1
- CCN(CC)C(=O)C1CCCN(c2ccc([N+](=O)[O-])cc2/C=N/NC(=O)c2cccc([N+](=O)[O-])c2)C1 (stereo not given)
  6	x	-4.6	-2%	3.6	4	-4.0
- O=c1[nH]c2cc3c(cc2cc1CN(Cc1ccco1)C(=S)NCCCN1CCOCC1)OCCO3
  -30	-8	-1.1	5%	0.1	-1	-1.3

Further compounds.
Below each compound – Calb FLC	ALR H2O2 inh	RanGTP-Imp inh	Vif A3G	LANA-H2B inh	Beta2AR agonist	HNF4A DNA FP
- O=C(Cn1ncc2c([nH]c3ccccc32)c1=O)NCC1CCN(Cc2ccccc2F)CC1
  -5	0	1.9	3%	3.5	-5	5.4
- COc1cc(OC)c(NC(=O)CC(=O)Nc2cc(Cl)c(OC)cc2OC)cc1Cl
  4	-2	-0.5	x	-2.8	-6	8.3
- CCOC(=O)C1CCCN(CCC(=O)Nc2ccc(C)c(C)c2)C1 (stereo not given)
  -9	5	3.1	6%	6.8	2	1.9
- OC(CNc1ccccc1)Cn1ccc2ccccc21 (stereo not given)
  0	x	0.1	-6%	0.7	-1	1.0
- COC(=O)c1cccc(NC(=S)Nc2cccc(Cl)c2C)c1
  -25	-1	-1.0	x	4.9	-3	2.5
- C=CCSc1nnc(NC(=O)c2cccc(S(=O)(=O)N3CCOCC3)c2)s1
  -15	0	-4.4	u	2.8	2	-1.8
- CCO[C@@H]1OC(C(=O)N2CCOCC2)=C[C@H](c2ccc(Br)cc2)[C@H]1CCCO
  2	-4	0.6	-7%	1.3	-5	4.8
- CCOc1ccc(NC(=O)CSc2ncn[nH]2)c([N+](=O)[O-])c1
  -7	-15	-5.0	-4%	-0.2	-3	0.6
- Cc1cccc(NCc2nc3ccccc3n2Cc2ccccc2)c1
  1	24	4.2	-2%	0.1	7	0.0
- CCOC(=O)c1c(NC(C)=O)sc(C(=O)NC2CCCC2)c1C
  -5	8	-0.4	x	-0.8	-14	-1.4
- CCOc1ccc(OCCC(=O)NNC(=O)c2ccccc2Cl)cc1
  -8	0	1.9	10%	-4.3	-3	-1.2
- Cc1ccc(-c2cn(-c3ccccc3)c(=S)[nH]2)cc1C
  -5	x	3.6	x	-5.2	3	3.0
- CC(C)Cc1nc(Nc2ccccc2C#N)c2nnn(Cc3ccccc3)c2n1
  -2	1	10	x	-0.6	-2	3.1
- N=c1c2c(n(Cc3ccc(Cl)cc3)c3c1CCC3)CCC2
  -10	-7	2.3	5%	-3.4	13	42*
- COC(=O)c1cn(NC(=O)C2COc3ccccc3O2)c(=O)c2ccccc12 (stereo not given)
  44	-25	4.7	2%	12	8	0.3
- CN1C(=O)/C(=C2\SC(=S)N(C(CCC(=O)O)C(=O)O)C2=O)c2ccccc21 (stereo not given)
  -1	12	1.5	-2%&3%	-0.4	-8	-5.8
- CCc1ccccc1N=C1S/C(=C/c2ccccc2OCC(=O)N2CCOCC2)C(=O)N1C
  4	-2	-2.2	2%	-6.2	3	4.2
- c1ccc(-c2nnc(CN3CCCc4ccccc43)o2)cc1
  -3	-10	-10	17%	-4.5	-38	0.2
- O=C1CN2NC(=S)N(c3ccc(Cl)cc3)C2=CN1c1ccc(Cl)cc1
  -4	-1	u	-17%	2.8	-5	-1.4
- CC1(c2nnc(-c3ccccc3)o2)CC(c2ccc(Cl)cc2)=NO1 (stereo not given)
  -6	0	-1.7	9%	-2.4	-10	-3.2

(continued)
Below each compound – Calb FLC	ALR H2O2 inh	RanGTP-Imp inh	Vif A3G	LANA-H2B inh	Beta2AR agonist	HNF4A DNA FP
- O=C(O)C(C(O)c1ccc([N+](=O)[O-])cc1)[n+]1ccccc1 (stereo not given)
  0	38	1.2	x	1.1	-1	0.1
- COc1ccccc1Nc1nc(-c2ccccc2O)nc2ccccc12
  28	-2	-2.0	i	-0.2	15	-0.4
- O=C(Nc1ccc(F)cc1)Oc1ccccc1N1CCOCC1
  2	-5	5.3	1%	7.1	-3	7.4
- Cc1cc(C(=O)CCl)c(C)n1-c1c(C)n(C)n(-c2ccccc2)c1=O
  -2	5	-1.5	43µM*	1.9	6	6.1
- Cc1cc(NC(=O)Nc2ccccc2)n(-c2ccccc2)n1
  4	-15	-3.1	3%	-0.2	-2	-0.6
- CCCCCC(=O)Nc1cccc(C2=NOC3(C2)C[C@@H](C(N)=O)N(C(=O)C2(C)CC2)C3)c1 (stereo not given in full)
  5	-30	2.3	15%	-0.6	-1	2.9
- CCc1cccc2sc(NC(=O)c3ccc(N4C(=O)CCC4=O)cc3)nc12
  6	-1	2.3	x	-7.1	7	-1.5
- Cc1cccc(C(=O)NNC(=O)CCCCC(=O)NNC(=O)c2cccc(C)c2)c1
  -6	-4	3.3	-3%	0.9	-4	-3.5
- O=C(NC(=O)c1cnccc1C(F)(F)F)Nc1ccccc1
  25	-26	0.3	u	3.0	2	3.0
- Cc1sc(-c2ccncc2)nc1OC(=O)c1ccccc1
  -4	12	-0.3	>100µM*	1.1	1	-4.4
- COc1cc2nc(-c3cccs3)oc(=O)c2cc1OC
  -2	-8	2.6	x	1.4	-7	-1.1
- COc1ccc(-c2oc3cccnc3c2C#CC2(O)CCCCC2)cc1
  -8	-1	23*	x	2.4	-5	5.2
- O=C(COC(=O)Cc1ccc(Cl)cc1)NCc1ccco1
  x	-2	x	7.4µM*	2.0	-7	-14
- Cc1nc(NC(=O)CCc2ccccc2)sc1C
  -14	72	0.8	x	2.5	-3	0.6
- N#CCC(=O)N/N=C/c1cc(Br)ccc1OCc1cccc2ccccc12
  5	-1	-2.9	-2%	-0.8	3	-0.6
- COc1ccc(OC)c(S(=O)(=O)N2CCCC(C(=O)N3CCOCC3)C2)c1 (stereo not given)
  5	-1	0.7	1%	0.7	6	0.6
- O=c1oc2ccccc2c(Nc2ccc(F)cc2)c1[N+](=O)[O-]
  20	1	2.4	-6%	-0.7	-3	-1.9
- COc1c2c(nc3ccccc13)OC(C(C)(O)CO)C2 (stereo not given)
  -1	-10	u	-3%&16%	-1.3	4	-0.2
- CCNC(=S)N/N=C/c1ccc(F)cc1
  -5	2	0.1	15%	-3.6	x	x
- CN(CCO)c1ccc(C=NNc2ccc([N+](=O)[O-])cc2S(=O)(=O)Nc2ccccc2C(=O)O)cc1
  x	99*	x	x	-1.1	x	47*

(more compounds)
Below each compound – Calb FLC	ALR H2O2 inh	RanGTP-Imp inh	Vif A3G	LANA-H2B inh	Beta2AR agonist	HNF4A DNA FP
- N=c1ccccn1CC(O)COc1ccccc1 (stereo not given)
  -13	x	-1.3	22%	3.2	6	0.2
- Clc1cccc2c1Sc1ccccc1CC2N1CCNCC1 (stereo not given)
  x	-1	7.4	x	-2.5	18	-0.8
- CC(C)OP(C)(=O)CN1CCN(CP(C)(=O)OC(C)C)CC1 (stereo not given)
  -13	-5	3.2	-7%	-6.8	5	-0.2
- COc1ccc(OC)c(/C=N/N2CCN(c3ccc(Cl)cc3)CC2)c1
  2	-3	0.8	4%	2.3	5	-1.3
- O=C(Oc1cccc2ccccc12)c1ccco1
  2	-9	3.1	0%	0.5	7	6.8
- Cc1ccccc1NC(=O)Nc1ccccc1C(N)=O
  1	-4	1.1	7%	1.6	3	1.8
- CC1CCN(Cc2nc(-c3ccc(Cl)cc3)no2)CC1
  -6	2	8.2	-1%	-9.1	-1	2.0
- CCOC(=O)c1ccc(NC(=O)C2CCN(S(=O)(=O)c3c(C)nn(C)c3C)CC2)cc1
  -2	98*	2.1	x	4.4	0	-4.1
- COc1ccc(C(=O)NCCS(=O)(=O)N2CCN(C(=O)c3ccco3)CC2)cc1
  -3	1	-0.3	-1%	-5.1	-6	1.5
- CN1CCN(C(=O)c2cnn(-c3ccccc3)c2NC(=O)c2ccc(Br)cc2)CC1
  -12	x	2.9	x	8.4	1	4.0
- OC(COC(c1ccc(Cl)cc1)c1ccc(Cl)cc1)CN1CCCC1 (stereo not given)
  -15	9	2.5	27%	-0.3	20	-4.3
- Cc1c(-n2c(-c3ccccc3)nc3ccccc3c2=O)c(=O)n(-c2ccccc2)n1C
  22	-2	-1.3	-7%	-10	-5	2.3
- O=C(Cn1cc(C(F)(F)F)ccc1=O)N/N=C/c1ccc(F)cc1
  -2	-10	-0.2	-11%	0.5	-4	3.8
- O=[N+]([O-])c1cc(S(=O)(=O)N2CCCCC2)ccc1NCc1cccc(Cl)c1
  30	-6	1.4	6%	2.5	0	2.6
- CCN(C[C@H]1N[C@@](CC)(C(=O)OC)[C@H]2C(=O)N(C)C(=O)[C@@H]12)C(=O)Nc1ccc(Cl)cc1
  x	x	x	8%	x	5	-0.5
- Cc1cc(NC(=O)COC(=O)C2CCN(S(=O)(=O)c3c(Cl)cccc3Cl)CC2)no1
  -4	2	-5.7	5%	-4.0	-3	-1.8
